# Screening results (PubChem BioAssay)
# Sa growth inh: S. aureus growth inhibition at 42 and 30 °C, primary screen, LtaS inhibitor project, RN4220, two temperatures | OD600, 20 h, 42 °C; active compounds read low | relative growth, % (no concentration beside the values) | 170,000 tested, 0.53% active | AID 720641, 2013;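 active = growth at 42 °C up to 50% and 20 or more points under that at 30 °C, or under 10% at both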;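 also: 300 nL library stock went into each well; scaled to the means of positive and negative controls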
# HCMV NEC inh: inhibitors of HCMV UL50-UL53 interaction, biochemical, HTRF | HCMV UL50-UL53 nuclear egress complex (human cytomegalovirus) | normalized percent inhibition | inhibition, % (no concentration beside the values) | 190,000 tested, 0.15% active | AID 1918969, 2023;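 active = both replicates at 50% or more, plus weaker picks with an unusually low signal ratio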;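 also: stock transfer was 100 nL into about 20 µL; 0% = negative control wells and 100% = wells with untagged competitor protein; inactives centre near -12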
# GIV-Gai inh: inhibitors of GIV peptide binding to Galpha-i3, primary screen, biochemical, fluorescence polarization, FITC-GIV GBA peptide, rat Galphai3. Guanine nucleotide-binding protein G(i) subunit alpha-3 (Rattus norvegicus), P08753. 90 min; active compounds read low; scaled: aluminum fluoride 0%, vehicle 100%. percent of control (FP), % (no concentration beside the values). 210,000 tested, 0.42% active. AID 1224905, 2016;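 active = replicate mean at 85% of control or lower, very high polarization wells dropped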;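 also: wells of about 15 µL received 100 nL stock; the first replicate is given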
# Target sequence (P08753 whole entry, looked up): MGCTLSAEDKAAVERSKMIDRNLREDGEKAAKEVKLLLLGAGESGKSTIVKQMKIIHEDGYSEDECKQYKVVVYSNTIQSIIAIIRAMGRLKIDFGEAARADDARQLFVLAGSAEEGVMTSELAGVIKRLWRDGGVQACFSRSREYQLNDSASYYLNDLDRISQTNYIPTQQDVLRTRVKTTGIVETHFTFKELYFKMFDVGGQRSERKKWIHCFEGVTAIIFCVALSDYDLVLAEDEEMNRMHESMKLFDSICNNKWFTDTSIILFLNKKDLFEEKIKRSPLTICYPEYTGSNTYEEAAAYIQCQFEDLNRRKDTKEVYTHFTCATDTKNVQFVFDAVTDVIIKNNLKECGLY
# Sa growth inh second temp: recorded beside Sa growth inh, whose call it bears; relative growth, %; measured here: growth at 30 °C;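 optical density after 20 h as mean of two plates; 100% = untreated growth and lower means inhibition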
# The depositor's hits bear a star; x = not tested or not shown.
# Start of the listing, in advance, 15 compounds:
1	COc1ccc(NC(=O)N2CCC(CN3CCCCC3)CC2)cc1OC
2	Cc1cc(C)cc(N2CCn3c2nc2c3c(=O)n(C/C=C/c3ccccc3)c(=O)n2C)c1
3	CC(C)(C)c1ccc(C(=O)N2CCC(C(=O)c3ccccc3)CC2)cc1
4	COc1cc(C(O)C(=O)O)ccc1O (stereo not given)
5	COC(=O)C1(CO)NC(c2ccccc2F)C2C(=O)N(c3ccccc3)C(=O)C21 (stereo not given)
6	Cc1c(C(=O)O)oc2ccccc12
7	COc1ccc(NC(=O)c2c(NC(=O)c3ccc(Br)cc3)sc3c2CCCC3)cc1
8	COC(=O)c1ccc(OC(=O)c2cc(C)sc2C)cc1

entry no.	1	2	3	4	5	6	7	8
Sa growth inh	102	99	99	x	108	97	104	84
Sa growth inh second temp	98	103	99	x	90	94	102	90
HCMV NEC inh	x	x	-1	-23	-20	x	40	-30
GIV-Gai inh	108	109	100	99	104	102	106	x

9	CC1CC(C)CN(C(=O)COC(=O)c2cccc(S(=O)(=O)N(C)C)c2)C1 (stereo not given)
10	Cc1ccc(S(=O)(=O)/C(C#N)=C/c2sccc2C)cc1
11	COc1ccc(-c2nc(CCNC(=O)CC(C)C)cs2)cc1
12	COc1ccc(NC(=O)Nc2nnc(N3CCCC3)s2)cc1
13	CCCCn1cnc2c1c(=O)n(Cc1nc3ccccc3s1)c(=O)n2CCC
14	CCC1CCCCN1S(=O)(=O)c1cc(C(=O)Nc2ccc(C)c(F)c2)ccc1F (stereo not given)
15	Cc1ccc(NC(=O)c2oc3ccc(S(=O)(=O)N(C)C4CCCCC4)cc3c2C)cc1C

entry no.	9	10	11	12	13	14	15
Sa growth inh	103	104	x	111	93	110	107
Sa growth inh second temp	90	88	x	91	84	84	91
HCMV NEC inh	-4	x	-31	-23	-22	x	x
GIV-Gai inh	x	100	95	97	x	107	99

# This part in full, from the start:
1	COc1ccc(NC(=O)N2CCC(CN3CCCCC3)CC2)cc1OC
2	Cc1cc(C)cc(N2CCn3c2nc2c3c(=O)n(C/C=C/c3ccccc3)c(=O)n2C)c1
3	CC(C)(C)c1ccc(C(=O)N2CCC(C(=O)c3ccccc3)CC2)cc1
4	COc1cc(C(O)C(=O)O)ccc1O (stereo not given)
5	COC(=O)C1(CO)NC(c2ccccc2F)C2C(=O)N(c3ccccc3)C(=O)C21 (stereo not given)
6	Cc1c(C(=O)O)oc2ccccc12

entry no.	1	2	3	4	5	6
Sa growth inh	102	99	99	x	108	97
Sa growth inh second temp	98	103	99	x	90	94
HCMV NEC inh	x	x	-1	-23	-20	x
GIV-Gai inh	108	109	100	99	104	102

7	COc1ccc(NC(=O)c2c(NC(=O)c3ccc(Br)cc3)sc3c2CCCC3)cc1
8	COC(=O)c1ccc(OC(=O)c2cc(C)sc2C)cc1
9	CC1CC(C)CN(C(=O)COC(=O)c2cccc(S(=O)(=O)N(C)C)c2)C1 (stereo not given)
10	Cc1ccc(S(=O)(=O)/C(C#N)=C/c2sccc2C)cc1
11	COc1ccc(-c2nc(CCNC(=O)CC(C)C)cs2)cc1
12	COc1ccc(NC(=O)Nc2nnc(N3CCCC3)s2)cc1

entry no.	7	8	9	10	11	12
Sa growth inh	104	84	103	104	x	111
Sa growth inh second temp	102	90	90	88	x	91
HCMV NEC inh	40	-30	-4	x	-31	-23
GIV-Gai inh	106	x	x	100	95	97

13	CCCCn1cnc2c1c(=O)n(Cc1nc3ccccc3s1)c(=O)n2CCC
14	CCC1CCCCN1S(=O)(=O)c1cc(C(=O)Nc2ccc(C)c(F)c2)ccc1F (stereo not given)
15	Cc1ccc(NC(=O)c2oc3ccc(S(=O)(=O)N(C)C4CCCCC4)cc3c2C)cc1C
16	COc1ccc(OC)c(NC(=O)Cn2cnc3c(nc4n3CCCCC4)c2=O)c1
17	CCOc1ccc(-n2nc(C(=O)Nc3cnc4ccccc4c3)c3ccccc3c2=O)cc1
18	COC(=O)CSc1nc2nc3c(cn2n1)C(=O)CC(c1ccco1)C3 (stereo not given)

entry no.	13	14	15	16	17	18
Sa growth inh	93	110	107	x	105	99
Sa growth inh second temp	84	84	91	x	92	87
HCMV NEC inh	-22	x	x	4	4	-19
GIV-Gai inh	x	107	99	104	x	97

# Next structures
# Letters: A = Sa growth inh; B = Sa growth inh second temp; C = HCMV NEC inh; D = GIV-Gai inh
[19] Cc1nc2ccccc2c(=O)n1-c1cccc(NC(=O)C(C)C)c1
  A: 132 | B: 99 | C: 28 | D: 113

[20] COCc1cc(C)n(CC(=O)Nc2cccc(C(C)=O)c2)c(=O)c1C#N
  A: 108 | B: 87 | C: -11 | D: 104

[21] Cc1nn(-c2ccccc2)c(OC(=O)C(C)C)c1S(=O)(=O)c1ccccc1
  A: 98 | B: 70 | C: -5 | D: 105

[22] N#CCSc1nc2ccc(N3CCOCC3)cc2c(=O)n1CCc1ccccc1
  A: 93 | B: 68 | C: x | D: 105

[23] COc1ccc(C)cc1NC(=O)c1ccccc1OC(F)F
  A: 68 | B: 82 | C: -38 | D: x

[24] COc1ccc(CCNc2oc(/C=C/c3ccc(OC)c(OC)c3)nc2C#N)cc1
  A: 117 | B: 93 | C: 13 | D: 99

[25] COc1cc2c(cc1OC)CN(C(=O)c1ccc(N3C(=O)CCS3(=O)=O)cc1)CC2
  A: x | B: x | C: -13 | D: 103

[26] Cc1ccccc1Cn1nnc2c(=O)[nH]c(C3CCN(C(=O)c4ccccc4Cl)CC3)nc21
  A: 12 | B: 14 | C: -16 | D: 96

[27] O=C(NCCCn1ccnc1)c1ccc(Cl)cc1
  A: 113 | B: 105 | C: -4 | D: x

[28] Fc1cccc(F)c1N=Cc1cccnc1
  A: 151 | B: 94 | C: -10 | D: x

[29] CC(=O)c1ccc(N2CCN(S(=O)(=O)c3cc4[nH]c(=O)c(=O)[nH]c4cc3C)CC2)cc1
  A: 88 | B: 90 | C: x | D: 109

[30] O=C(CN1CCN(c2ccccn2)CC1)N(Cc1ccccc1)Cc1ccccc1
  A: 91 | B: 85 | C: -11 | D: x

[31] COc1ccc(CCN2C(=O)CCC2(C)C(=O)NCc2cccnc2)cc1OC (stereo not given)
  A: 96 | B: 88 | C: -4 | D: 107

[32] Cc1noc2[nH]cnc(=S)c12
  A: 43 | B: 0 | C: -42 | D: 102

[33] COc1cc(OC)c(NC(=O)NCC(c2cccnc2)c2cn(C)c3ccccc23)cc1Cl (stereo not given)
  A: x | B: x | C: -30 | D: 101

[34] CCn1cc(C(=O)NCCc2ccccc2)c(=O)c2cc(S(=O)(=O)N(C)C3CCCCC3)ccc21
  A: 106 | B: 83 | C: -21 | D: 104

[35] N#Cc1ccccc1NC(=O)CC1Nc2ccccc2NC1=O (stereo not given)
  A: 100 | B: 75 | C: -30 | D: 107

[36] CCOC(=O)C1CCN(c2cc(C(F)(F)F)nc3ccccc23)CC1
  A: 116 | B: 100 | C: 6 | D: 102
